D2 ag – agonists of human D2 dopamine receptor (beta-arrestin); P14416; activation, % (no concentration beside the values); 0.084% of 360,000 active; DiscoveRx PathHunter D2 beta-arrestin, luminescence, 90 min; 100% = 57 uM dopamine signal; AID 624465; in the data active = activation above about 40%; inconclusive = about 15% to 40%; inactive = below about 15%; also: compound concentration not given in the record; the text of the record calls up to 30% inactive
Target sequence (P14416 whole entry, looked up): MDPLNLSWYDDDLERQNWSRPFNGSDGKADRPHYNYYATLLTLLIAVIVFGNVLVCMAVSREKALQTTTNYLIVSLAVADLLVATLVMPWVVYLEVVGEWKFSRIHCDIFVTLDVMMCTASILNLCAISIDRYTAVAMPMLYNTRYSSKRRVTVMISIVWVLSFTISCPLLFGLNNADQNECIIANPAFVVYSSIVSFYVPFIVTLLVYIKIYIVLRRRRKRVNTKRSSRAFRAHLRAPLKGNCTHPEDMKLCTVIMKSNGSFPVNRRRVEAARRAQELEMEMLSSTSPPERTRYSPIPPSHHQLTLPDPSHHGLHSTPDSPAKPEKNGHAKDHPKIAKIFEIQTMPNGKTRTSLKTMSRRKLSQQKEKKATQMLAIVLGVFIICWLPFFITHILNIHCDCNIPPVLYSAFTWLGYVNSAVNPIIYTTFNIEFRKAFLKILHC
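DiscoveRx PathHunter D2 beta-arrestin cells (2,100/well) attached overnight, then compound-stimulated 90 min at 37 C in HBSS/10 mM HEPES/0.1% Tween-20 buffer; beta-galactosidase complementation read by luminescence after 1 h at ambient temperature. Dopamine 57 uM final (EC100) as control.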
D2 potentiator – positive allosteric modulators of human D2 dopamine receptor | 0.23% of 360,000 active | AID 624464 | potentiation, % (concentration not given with the values) | P14416 | DiscoveRx D2 beta-arrestin cells, luminescence, 90 min; 100% = 57 uM dopamine signal; active = potentiation of 50% or more; inconclusive = 30% to 50%; inactive = 30% or less;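 also: compound concentration not given in the record; tested on top of an EC20 dose of dopamine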
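PathHunter beta-arrestin assay in DiscoveRx D2 cells. Compounds were added with an EC20 of dopamine (50 nM final) for 90 min at 37 deg C. Luminescence was read 1 h after detection reagent, with 57 uM dopamine as the EC100 control.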
TRPML1 inh – inhibitors of human TRPML1 channel; TRPML1-inducible cells, Ca2+ dye fluorescence, FDSS; hits give low values; inhibition of EC80 agonist-evoked calcium signal; activity change, negative = inhibition, % (test concentration not listed); 0.02% of 390,000 active; AID 624415; in the data active means activity change below about -50%; inconclusive means about -30% to -50%; inactive means above about -30%;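 also: stimulus is agonist 54-4 at its EC80 concentration; % is scaled to controls: 0 for no effect and ±100 for the full control effect; compound concentration not given in the record; the text of the record puts the active cut at -80%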
Target sequence (Q9GZU1 whole entry, looked up): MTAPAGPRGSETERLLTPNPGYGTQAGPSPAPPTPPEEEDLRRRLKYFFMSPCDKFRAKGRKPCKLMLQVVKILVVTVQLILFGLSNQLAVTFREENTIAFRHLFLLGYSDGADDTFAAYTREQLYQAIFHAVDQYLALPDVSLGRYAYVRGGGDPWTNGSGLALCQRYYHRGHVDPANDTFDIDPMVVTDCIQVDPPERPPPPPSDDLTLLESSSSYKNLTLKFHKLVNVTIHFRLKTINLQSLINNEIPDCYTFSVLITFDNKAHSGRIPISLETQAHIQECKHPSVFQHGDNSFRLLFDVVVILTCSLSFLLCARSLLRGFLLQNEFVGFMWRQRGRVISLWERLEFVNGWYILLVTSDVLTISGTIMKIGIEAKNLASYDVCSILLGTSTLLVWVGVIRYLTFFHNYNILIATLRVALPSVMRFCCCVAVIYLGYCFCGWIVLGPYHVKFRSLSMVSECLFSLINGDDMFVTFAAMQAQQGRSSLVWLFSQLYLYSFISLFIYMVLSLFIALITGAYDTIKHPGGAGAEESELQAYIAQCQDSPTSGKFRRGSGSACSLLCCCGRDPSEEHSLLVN
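TRPML1-DL cells, Tet-induced overnight (~16 h, 37 °C) at 1,500 cells/well, were loaded with Ca8 no-wash dye plus quencher for 45-90 min at room temperature. Compounds were pinned during FDSS kinetic reading; agonist 54-4 at EC80 (4 uM final) then added.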
Six1-Eya2 inh – inhibitors of human Six1/Eya2 interaction; Q15475+O00167; AlphaScreen GST-Six1/His-Eya2 binding, biochemical; hits give low values; control for the full effect not named in the record; activity change, % (no concentration beside the values); 0.56% of 360,000 active; AID 651725; in the data active = activity change below about -65%; inconclusive = about -30% to -65%; inactive = above about -30%; also: % is scaled to controls: 0 for no effect and ±100 for the full control effect; compound concentration not given in the record
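AlphaScreen with GST-Six1 and His-Eya2 (5X mix: 250 nM and 500 nM), glutathione donor and nickel acceptor beads; buffer 50 mM Tris pH 8.0, 300 mM NaCl, 1 mM TCEP; 1 h at 37 C in the dark.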
PINK1 expr mod – modulators of PINK1 expression. PINK1 immunofluorescence, high-content cytometry, 24 h. 0.2% of 410,000 active. Potency, µM (highest dose often 76.6 µM), for the others: at the highest dose activation (PINK1 increase), most hits filed as activators; active = well fitted activation curve with a large enough effect; inconclusive = small, poorly fitted or top-dose-only effect; inactive = flat fitted curve, though single readings scatter; cell line not stated here;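 also: potency is read from the fitted curve at half-maximal effect; % of control where 0% means no effect; nearly all actives have a fitted effect of over 65% in size; a mitochondrial uncoupler was the plate control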
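Readout is PINK1 immunofluorescence, quantified alongside mitochondrial, cell and nuclear markers by laser-scanning microplate cytometry. Cells from a stable line were exposed to compound titrations (5 concentrations) for 24 hours, with CCCP controls.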
TRPML1 ag – activates the human TRPML1 channel. Q9GZU1. TRPML1-expressing cells, Ca2+ dye fluorescence, FDSS; host cell line not named in the record; reference of the full effect not given here. 0.12% of 410,000 active. activation, % (concentration not given with the values); in the data active = activation above about 50%; inconclusive = about 30% to 50%; inactive = below about 30%; also: 0% is about no effect; the text of the record puts the active cut at 80%
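Calcium fluorescence on an FDSS kinetic reader gave the read-out. Tet-induced TRPML1-DL cells were plated overnight, dye-loaded (Ca8 with quencher, 45-90 min, room temperature, dark), then read 110 s after compound addition, and again 110 s after 4uM final 54-4 (EC80).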
The depositor's hits bear a star; ? = inconclusive; nt = not tested or not shown; [ ] = another dose, or the depositor's remark.

Values in the order – D2 ag	D2 potentiator	TRPML1 inh	Six1-Eya2 inh	PINK1 expr mod	TRPML1 ag
COc1ccccc1N(CC(=O)NC1CCCC1)C(=O)CCC(=O)Nc1cc(C)on1
 : -3.5	-18	-7	2	-2.3%	-0.2
COC(=O)Nc1ccc(Oc2ccccc2)cc1
 : 1.1	-1	0	3	9.4%[38.3 µM]	1.4
O=C(CSc1nnc2ccccn12)N1CCc2ccccc21
 : -3.3	-9	-25	4	0.7%	-0.1
Cc1ccc(-c2ccc(=O)n(CC(=O)Nc3cccc(C(=O)N4CCN(C)CC4)c3)n2)cc1
 : -1.4	-13	-13	0	3.6%[38.3 µM]	1.8
COc1ccc(C)cc1NS(=O)(=O)c1c(C(=O)N2CCC(C)CC2)c(C)n(C)c1C
 : nt	nt	-6	nt	-0.1%	1.4
CCOc1ccc(CCNC(=O)c2cc(=O)[nH]c3ccc(S(=O)(=O)N4CCCCC4)cc23)cc1OCC
 : nt	nt	-10	nt	1.9%	0.1
O=C(Nc1cccc([N+](=O)[O-])c1)Nc1ccc(Cl)cn1
 : -0.8	-8	20	2	-0.2%	-0.5
Nc1ccc(Sc2ccccc2Cl)nc1
 : -3.1	-1	10	-20	1.9%	-0.4
O=C(COC(=O)c1ccccc1S(=O)(=O)N1CCCCC1)NCC(F)(F)F
 : 1.5	4	-3	19	-0.1%	-1.2
CCOc1ccccc1CNCCSc1nnnn1C
 : nt	nt	3	nt	-0.4%	0.8
CCOC(=O)c1c(C)[nH]c(C(=O)C(C)OC(=O)c2oc3ccccc3c2COC)c1C (stereo not given)
 : -4.2	1	2	-3	-0.1%	-0.2
Cc1oc2c(CN3CCCCC3C)c(O)ccc2c(=O)c1-c1ccccc1 (stereo not given)
 : -0.1	-5	-27	-6	-1.8%	1.1
Cc1ccc(S(=O)(=O)N2CCOC23CCN(C(=O)c2cc(Cl)ccc2Cl)CC3)cc1
 : -5.4	-4	-3	-7	-1.6%	-1.2
Cc1cccc(Nc2nnc(SC/C(O)=C(\C#N)c3nc4ccccc4[nH]3)s2)c1C
 : -0.8	-12	-21	-10	0.8%	1.4
COc1ccc(OC)c(NC(=O)C2(C)CCN2C(=O)CCC2CCCC2)c1 (stereo not given)
 : 3.2	-5	nt	-14	-0.5%	-0.5
N=c1nc(N)nc2n1NC(c1ccc(F)cc1)=CS2
 : -1.2	-6	3	?	-2.3%[38.3 µM]	5.3
O=C(Nc1ccc(Cl)c(Cl)c1)OCc1cnc(Cl)s1
 : 4.4	-39	3	31	3.3%	3.6
CC(=O)Nc1ccc(S(=O)(=O)NC2=NCN(CCOC(=O)c3ccccc3)CN2)cc1
 : -3.6	-6	26	-1	-1.7%	-0.3
CCc1ccccc1NC(=S)N(CCN(C)C)Cc1cccs1
 : -1.8	-7	?	-4	-1.1%	-0.2
COc1cccc(C2CC(c3ccc(C(C)C)cc3)n3nc(N)nc3N2)c1 (stereo not given)
 : 1.4	-2	-12	-1	3.2%	0.7
COC(=O)c1c(C(=O)OC)c(-c2ccc(C(C)(C)C)cc2)n2c1CS(=O)C2 (stereo not given)
 : -1.6	-5	3	-4	0.0%	-0.4
COc1ccc(CCN(C(=O)C(F)(F)F)C(C(=O)NC2CCCCC2)c2ccc(C)s2)cc1 (stereo not given)
 : -3.3	6	-3	3	nt	-0.4
Cc1c(CC(=O)N2CCCCC2)c(=O)oc2cc(O)ccc12
 : nt	nt	43	nt	2.3%	0.1
O=C(CCCN1C(=O)c2ccccc2C1=O)NCCCn1ccnc1
 : -19	-9	-3	4	-0.6%	3.6
Cc1ccc(C2CC(c3cccc(C)c3)n3nc(N)nc3N2)cc1 (stereo not given)
 : 0.8	-4	2	-7	0.6%	4.3
COC(=O)C1=C(C)N2C(=O)CSC2=NC1c1ccc2c(c1)OCO2 (stereo not given)
 : -2.7	8	-11	0	-0.3%	1.1
Cn1c(SCCCC(=O)c2ccc(Br)cc2)nnc1-c1ccncc1
 : 0.1	-2	-8	6	-3.0%	1.2
COc1ccc(C2=NOC(Cn3nc(C(=O)NCc4ccco4)cc3-c3ccccc3)C2)cc1 (stereo not given)
 : 8.9	10	7	-18	-0.6%	-0.2
Cc1cc(C)c(CN2CCN(C(=O)CC[C@H]3O[C@@H](n4ccc(=O)[nH]c4=O)[C@H](O)[C@@H]3O)CC2)c(C)c1
 : -4.1	-10	-2	-5	1.4%	0.3
O=C(c1cccc(F)c1)N1CCC(N2CCCCCC2)CC1
 : -6.7	-6	1	3	-2.7%	-0.2
Cc1ccccc1C(=O)N1CCC(C(=O)Nc2ccc(S(=O)(=O)N(C)C(C)C)cc2)CC1
 : -2.7	-2	-2	3	0.7%	-0.3
CCCn1c(NCc2ccc(N(CC)CC)cc2)nc2ccccc21
 : nt	nt	9	nt	?	0.6
CC(=O)c1ccc(Nc2cc(C)nc3ccc(C)cc23)cc1
 : -2.6	-12	21	-4	-1.5%	-0.7
CCn1nc2cc(C(=O)NCc3cc(C(F)(F)F)cc(C(F)(F)F)c3)ccc2c1OC
 : 0.7	-31	6	-4	15%	-0.3
CCN(CC(=O)Nc1ccccc1SC)Cc1nc2ccccc2c(=O)[nH]1
 : -2.5	-2	2	4	2.7%	-0.7
COc1ccc(C(=O)C[n+]2ccc(N(C)C)cc2)cc1
 : 0.9	-3	2	7	1.3%	1.0
CCCSCCCNC(=O)C1CCN(C(=O)c2cnn(-c3ccccc3)c2-n2cccc2)CC1
 : nt	nt	-14	nt	0.8%	0.6
CC(=O)N1CCN(c2csc3ccc(Cl)cc3c2=O)CC1
 : nt	nt	2	nt	0.3%	0.8
COc1cc(C)ccc1OCCON1C(=O)CCC1=O
 : 2.1	0	12	10	-0.4%	0.0
O=C(CSc1ccccc1F)NCC(c1ccco1)N1CCCCC1 (stereo not given)
 : -0.7	-9	4	-3	2.0%	-0.8
C[C@@]12C(=O)N(c3cccc(Cl)c3)C(=O)N1[C@@H]1c3ccccc3OC[C@@H]1[C@H]2c1ccccc1
 : -6.2	-2	54	-7	0.4%	0.7
Cc1ccc(NS(=O)(=O)c2ccccc2[N+](=O)[O-])cc1S(=O)(=O)N1CCCCC1
 : -1.2	-1	2	-3	3.0%	-0.7
COc1cc(OC)c(NC(=O)CC(=O)Nc2cc(Cl)c(OC)cc2OC)cc1Cl
 : -1.0	-7	3	-4	7.4%	-0.1
OC(CNc1ccccc1)Cn1ccc2ccccc21 (stereo not given)
 : 4.6	-4	-18	0	7.5%	0.1
CCOC(=O)C1CCCN(CCC(=O)Nc2ccc(C)c(C)c2)C1 (stereo not given)
 : 3.4	-22	19	6	-0.2%	1.9
CCN(CC)C(=O)C1CCCN(c2ccc([N+](=O)[O-])cc2/C=N/NC(=O)c2cccc([N+](=O)[O-])c2)C1 (stereo not given)
 : -0.8	0	-7	-9	-1.7%	3.7
Cc1ccccc1S(=O)(=O)NC(=O)C1(C)CCN1C(=O)C1(c2ccccc2)CC1 (stereo not given)
 : -3.8	0	nt	5	0.7%	-0.7
COc1cccc(NC(=O)C2CCCN(c3nnc(-n4c(C)ccc4C)s3)C2)c1 (stereo not given)
 : nt	nt	8	nt	0.0%	0.4
O=c1[nH]c2cc3c(cc2cc1CN(Cc1ccco1)C(=S)NCCCN1CCOCC1)OCCO3
 : 1.9	-16	1	-3	-0.1%	-0.6
O=C(Cn1ncc2c([nH]c3ccccc32)c1=O)NCC1CCN(Cc2ccccc2F)CC1
 : -1.1	-20	11	1	-0.4%	-0.4
COC(=O)c1cccc(NC(=S)Nc2cccc(Cl)c2C)c1
 : -3.1	-7	20	1	3.2%	-0.2
CC1(C(=O)Nc2cccc3ncccc23)CCN1C(=O)CCc1ccccc1 (stereo not given)
 : 3.0	0	nt	1	-0.1%	0.5
CCOC(=O)c1c(NC(C)=O)sc(C(=O)NC2CCCC2)c1C
 : -4.3	3	0	6	-0.1%	1.0
C[C@H](CO)N1C[C@H](C)[C@@H](CN(C)C(=O)NC2CCCCC2)Oc2ccc(NC(=O)C3CC3)cc2C1=O
 : -3.2	-8	-1	4	-0.8%	-0.6
CCO[C@@H]1OC(C(=O)N2CCOCC2)=C[C@H](c2ccc(Br)cc2)[C@H]1CCCO
 : -2.6	-8	14	6	2.9%	0.0
C=CCSc1nnc(NC(=O)c2cccc(S(=O)(=O)N3CCOCC3)c2)s1
 : 0.9	-9	13	4	?	2.7
Cc1cccc(NCc2nc3ccccc3n2Cc2ccccc2)c1
 : -4.5	-6	-14	-16	1.2%	-0.5
CCOc1ccc(NC(=O)CSc2ncn[nH]2)c([N+](=O)[O-])c1
 : -0.2	6	-10	-7	2.4%	0.6
CCOc1ccccc1NC(=O)c1nc(-c2ccccc2)oc1C
 : 4.3	-11	36	-5	2.9%	4.3
O=C(Nc1ccc(S(=O)(=O)NC2CCCCC2)cc1)c1ccco1
 : -0.4	-18	-6	0	-0.1%[38.3 µM]	-0.6

Brought forward from above: two compounds, followed by the next part.
Values in the order – D2 ag	D2 potentiator	TRPML1 inh	Six1-Eya2 inh	PINK1 expr mod	TRPML1 ag
CCOc1ccccc1NC(=O)c1nc(-c2ccccc2)oc1C
 : 4.3	-11	36	-5	2.9%	4.3
O=C(Nc1ccc(S(=O)(=O)NC2CCCCC2)cc1)c1ccco1
 : -0.4	-18	-6	0	-0.1%[38.3 µM]	-0.6
O=C(CSc1cccc(C(F)(F)F)c1)NC(=O)c1ccccc1
 : -1.6	-13	-9	5	3.0%	3.3
COc1ccc(Cl)cc1NC(=O)C(C)N1CCN(C/C=C/c2ccccc2)CC1 (stereo not given)
 : -1.9	-33	17	-18	22%	1.1
COc1ccc(OC)c(S(=O)(=O)N2c3ccccc3CC2C)c1 (stereo not given)
 : -0.6	-1	15	5	3.8%[38.3 µM]	0.3
O=C(NC1CCCC1)C(c1ccc(N2CCOCC2)cc1)N(Cc1ccco1)C(=O)c1ccco1 (stereo not given)
 : -1.7	0	6	1	-0.5%	-0.3
O=C(NCc1ccccc1F)c1cccc(S(=O)(=O)N2CCCCC2)c1
 : 0.7	-6	-18	0	-0.9%	2.2
NC(=O)NC(=O)c1nccnc1C(=O)O
 : 0.3	-17	-5	7	2.6%	0.0
CN(c1ccccc1)S(=O)(=O)c1cccc(NC(=O)CN2CCCc3ccccc32)c1
 : 6.8	-5	-28	-19	0.8%	-0.8
CC(=O)c1ccc(S(=O)(=O)N(C)CC(=O)NCC2CCCCC2)cc1
 : 0.8	-1	4	7	0.3%	0.7
COc1ccc(C(=O)C2CCCN(C(=O)/C=C/c3cnc[nH]3)C2)c(C)c1 (stereo not given)
 : 1.3	7	-16	-1	0.9%	0.0
CN(Cc1ccc(Cl)cc1)C(CCc1ccccc1)C(=O)NC1CCCCC1 (stereo not given)
 : -6.1	-12	nt	10	5.1%	0.0

Screening results: PubChem, National Center for Advancing Translational Sciences (NCATS)

Rows were taken by chance, and some 1% of all compounds hit somewhere here.
